FGF22 binding – binders of human FGF22 protein, primary screen, FGF22 synaptogenesis inhibitor project, biophysical, thermal shift, single point; calls only at 9.99 µM; recombinant FGF22 thermal shift, SYPRO orange fluorescence; percent of sucrose octasulfate shift, DMSO zero; Fibroblast growth factor 22 (Homo sapiens), Q9HCT0; 340,000 compounds, 1.5% hits;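 active = melting point raised past a set limit in the mean and every replicate; three in four hits are not shown here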
Target sequence (Q9HCT0 whole entry, looked up): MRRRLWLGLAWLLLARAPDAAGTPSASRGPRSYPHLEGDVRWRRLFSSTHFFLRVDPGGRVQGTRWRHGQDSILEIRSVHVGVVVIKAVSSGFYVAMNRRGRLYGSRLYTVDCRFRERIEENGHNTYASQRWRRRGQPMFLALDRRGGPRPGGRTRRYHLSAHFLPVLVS
MLL AF4-AF9 inh – inhibitors of AF4 peptide binding to AF9, primary screen, biochemical, AlphaScreen, biotin-AF4 peptide, FLAG-AF9, single point; Protein AF-9 (Homo sapiens), P42568; inhibition, % at 10 µM; 350,000 compounds, 0.47% hits; AID 651704, 2012;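 active = every replicate reaching a set inhibition limit, whatever the replicate mean, cut at about 25% in these data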;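 also: 0% = plate neutral control median and 100% = total signal loss; the record names both 10 and 1 µM as test concentration; the first replicate is given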
Target sequence (P42568 whole entry, looked up): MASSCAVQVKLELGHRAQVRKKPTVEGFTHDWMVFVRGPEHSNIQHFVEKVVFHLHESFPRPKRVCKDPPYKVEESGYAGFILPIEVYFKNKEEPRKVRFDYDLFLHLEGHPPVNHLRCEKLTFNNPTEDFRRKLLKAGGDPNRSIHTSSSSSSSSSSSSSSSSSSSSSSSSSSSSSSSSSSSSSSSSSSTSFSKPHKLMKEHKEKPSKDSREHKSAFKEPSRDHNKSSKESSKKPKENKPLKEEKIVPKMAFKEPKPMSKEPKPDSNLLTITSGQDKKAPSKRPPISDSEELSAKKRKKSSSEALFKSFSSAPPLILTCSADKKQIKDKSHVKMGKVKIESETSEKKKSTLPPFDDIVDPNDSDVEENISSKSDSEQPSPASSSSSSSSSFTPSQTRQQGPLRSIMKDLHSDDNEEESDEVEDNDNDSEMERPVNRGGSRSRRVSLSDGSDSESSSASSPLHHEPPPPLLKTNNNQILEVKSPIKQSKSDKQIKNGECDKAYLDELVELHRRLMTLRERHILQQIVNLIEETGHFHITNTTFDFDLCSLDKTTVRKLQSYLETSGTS
Ecoli rRNA inh – reduced GFP signal of wild-type E. coli, primary screen, bacterial rRNA inhibitor project, GFP/RFP fluorescence, OD600, single point | E. coli WT GFP vs humanized-ribosome RFP mutants, 24 h; stronger effect = lower value; DMSO median 0, no signal -100 | GFP signal change (wild-type ribosome), % (no concentration beside the values) | 350,000 compounds, 1.6% hits | AID 720706, 2013;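 active = significant combined selectivity score with lowered wild-type GFP, culture density cut under 30%, mutant RFP and density less affected; inactive = any of these conditions unmet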; also: one replicate is shown; some compounds called inactive have numbers as strong as hits
Ecoli rRNA inh OD600 – also measured in Ecoli rRNA inh; calls as there; OD600 change, %; measured here: OD600 growth;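 optical density of the mix in the first replicate; 0 = DMSO median and -100 = no signal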
Ecoli rRNA inh RFP – second read-out of Ecoli rRNA inh, no call of its own (marks repeat the call); RFP signal change, %; measured here: RFP humanized mutant strains;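 first replicate; 0 = DMSO median and -100 = no signal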
Starred values were filed as active, the others as inactive; i = inactive. These rows are one share of the data; the hit share may differ from the screen's.

SMILES | FGF22 binding | MLL AF4-AF9 inh | Ecoli rRNA inh | Ecoli rRNA inh OD600 | Ecoli rRNA inh RFP
COc1cccc(-c2ccc3n(c2=O)C[C@H]2[C@H](CO)[C@@H](C(=O)N(C)C)N(C(=O)C4CCC4)[C@@H]32)c1 | i | -18.1 | 3.7 | 3.5 | 0.8
COc1ccc(NC(=O)N2CCCCN3[C@H](CO)[C@@H](c4ccc(-c5ccccc5C)cc4)[C@@H]3C2)cc1 | i | 3.0 | -31.6 | -41.6 | 3.3
Clc1cccc2c1C1CC2CCN1Cc1ccccc1 (centres undefined) | i | 0.6 | -3.5 | 7.0 | -2.5
COc1ccccc1S(=O)(=O)N[C@@H]1C=C[C@@H](CC(=O)N2CCN(C)CC2)O[C@@H]1CO | i | -17.1 | -0.4 | -5.6 | -3.7
C[C@H]1CN([C@@H](C)CO)S(=O)(=O)c2ccc(C#Cc3cccnc3)cc2O[C@@H]1CN(C)C(=O)C1CC1 | i | -0.7 | -4.9 | -10.4 | -2.1
COc1ccccc1-c1ccc([C@@H]2[C@H]3CN(C(=O)c4ccncc4)CCCCN3[C@H]2CO)cc1 | i | -4.0 | -2.3 | -7.0 | 1.9
CCCN(CCC)Cc1cc(=O)oc2cc(OC)ccc12 | i | -0.6 | 1.3 | 8.7 | -6.0
Cc1noc(C)c1S(=O)(=O)N(C)C[C@H]1Oc2ccc(NC(=O)Cc3cn(C)c4ccccc34)cc2CC(=O)N([C@@H](C)CO)C[C@H]1C | i | 5.1 | -0.1 | -0.4 | -0.6
C[C@@H](c1ccccc1)N1C[C@H](COCc2ccccc2)Oc2cc(N3CCC[C@H]3CO)ccc2S1(=O)=O | i | 0.0 | 1.5 | -5.5 | 6.1
CO[C@H]1CN(C)C(=O)c2ccc(NC(=O)c3nc4ccccc4s3)cc2OC[C@H](C)N(Cc2ccncc2)C[C@@H]1C | i | 8.8 | -8.9 | -16.6 | 25.7
COc1ccccc1NC(=O)N1C[C@@H]2[C@H](c3ccccc31)[C@@H](CO)N2CC1CCCC1 | i | 9.1 | -21.4 | -30.1 | 3.7
COc1ccc(S(=O)(=O)N(C)C[C@@H]2Oc3cc(C#CC4CC4)ccc3S(=O)(=O)N([C@@H](C)CO)C[C@H]2C)cc1 | i | 3.1 | -3.7 | -1.8 | 1.4
COc1ccc(NC(=O)Nc2ccc3c(c2)C(=O)N([C@H](C)CO)C[C@@H](C)[C@H](CN(C)C(=O)NC2CCCCC2)O3)cc1 | i | -2.3 | 2.7 | 5.9 | -3.2
C[C@@H]1CN([C@@H](C)CO)C(=O)c2cc(NS(=O)(=O)c3ccccc3)ccc2O[C@@H](C)CCCCO[C@H]1CN(C)S(=O)(=O)c1ccc(Cl)cc1 | i | -7.0 | -0.7 | -0.2 | 0.8
CCNC(=O)C[C@H]1CC[C@H]2[C@@H](COc3ccc(NC(=O)Nc4ccccc4OC)cc3C(=O)N2C)O1 | i | -3.3 | -2.3 | 1.9 | -0.2
Cc1ccccc1-c1cnc2c(c1)C(=O)N([C@@H](C)CO)C[C@@H](C)[C@H](CN(C)Cc1cncnc1)O2 | i | -2.3 | -0.4 | 0.1 | -2.4
COc1ccc(NC(=O)N(C)C[C@H]2Oc3ccc(NC(=O)C4CCCCC4)cc3CC(=O)N([C@@H](C)CO)C[C@H]2C)cc1 | i | -1.3 | -1.5 | 2.3 | -1.5
C[C@@H]1CCCCO[C@@H](CN(C)C(=O)CCC(F)(F)F)[C@@H](C)CN([C@H](C)CO)C(=O)c2cc(NS(=O)(=O)c3ccc(Cl)cc3)ccc2O1 | i | -4.5 | 2.0 | -0.4 | -0.5
COc1ccc2c3c([nH]c2c1)[C@H](CO)N(C(=O)c1ccccc1)CC31CCN(C(=O)NC(C)C)CC1 | i | 1.1 | -2.0 | 5.9 | -3.3
C/C=C/c1ccc([C@H]2[C@H]3CN(C(=O)Nc4ccc(OC)cc4)CCCCN3[C@H]2CO)cc1 | i | 4.8 | -1.2 | 8.5 | -0.5
COCC#Cc1cnc2c(c1)C(=O)N([C@@H](C)CO)C[C@@H](C)[C@@H](CN(C)C(=O)Cc1ccncc1)O2 | i | -1.8 | 10.8 | 6.8 | 1.3
CN1[C@@H]2c3ccc(-c4ccc(F)cc4)c(=O)n3C[C@@H]2[C@@H](CO)[C@@H]1C(=O)NCC1CC1 | i | -19.8 | 1.3 | -0.6 | -0.3
C[C@H](CO)N1C[C@H](C)[C@H](CN(C)C(=O)Nc2cccc3ccccc23)Oc2ncc(C#Cc3ccccc3)cc2C1=O | i | -7.0 | 0.4 | 3.0 | 2.4
C/C=C/c1ccc([C@H]2[C@H](CO)N(C(C)=O)[C@H]2CN(CC)C(=O)CN(C)C)cc1 | i | -10.1 | 0.6 | 4.7 | -1.2

An excerpt from above in order of formula weight, smallest number first:
SMILES | FGF22 binding | MLL AF4-AF9 inh | Ecoli rRNA inh | Ecoli rRNA inh OD600 | Ecoli rRNA inh RFP
CN1[C@@H]2c3ccc(-c4ccc(F)cc4)c(=O)n3C[C@@H]2[C@@H](CO)[C@@H]1C(=O)NCC1CC1 | i | -19.8 | 1.3 | -0.6 | -0.3
C[C@H](CO)N1C[C@H](C)[C@H](CN(C)C(=O)Nc2cccc3ccccc23)Oc2ncc(C#Cc3ccccc3)cc2C1=O | i | -7.0 | 0.4 | 3.0 | 2.4
COc1ccc(NC(=O)N(C)C[C@H]2Oc3ccc(NC(=O)C4CCCCC4)cc3CC(=O)N([C@@H](C)CO)C[C@H]2C)cc1 | i | -1.3 | -1.5 | 2.3 | -1.5

The list continues:
SMILES | FGF22 binding | MLL AF4-AF9 inh | Ecoli rRNA inh | Ecoli rRNA inh OD600 | Ecoli rRNA inh RFP
COc1cccc(NC(=O)C[C@H]2CC[C@@H]3[C@@H](COc4ccc(NC(=O)C5CCC5)cc4C(=O)N3C)O2)c1 | i | -2.9 | -0.7 | -4.6 | 0.5
Cc1ccc(S(=O)(=O)N(C)C[C@H]2Oc3c(NC(=O)C4CCOCC4)cccc3C(=O)N([C@H](C)CO)C[C@@H]2C)cc1 | i | 2.3 | -1.0 | 6.3 | -0.9
COCC#Cc1ccc2c(c1)O[C@H](CN(C)Cc1ccccc1F)[C@H](C)CN([C@@H](C)CO)S2(=O)=O | i | 3.9 | -8.9 | -35.0 | 0.0
COc1ccc2c3c(n(C)c2c1)[C@H](CO)N(C)CC31CN(S(=O)(=O)c2cccc(F)c2)C1 | i | -0.2 | -2.5 | -17.6 | 1.9
C[C@@H]1CN([C@H](C)CO)C(=O)c2cc(N(C)C)ccc2O[C@@H](C)CCCCO[C@H]1CN(C)S(C)(=O)=O | i | -5.8 | 3.4 | 8.8 | 2.0
CO[C@@H]1CN(C)C(=O)c2ccc(NS(=O)(=O)c3ccc(C)cc3)cc2OC[C@@H](C)N(C)C[C@@H]1C | i | -0.7 | 0.3 | 3.9 | -0.7
CCC(=O)N(CC(C)C)C[C@@H]1[C@@H](c2ccccc2)[C@H](CO)N1C(=O)C1CCC1 | i | -1.4 | 1.5 | 6.2 | -3.1
COc1cccc(CNC(=O)C[C@H]2CC[C@H]3[C@H](COc4ccc(NS(=O)(=O)c5ccccc5F)cc4C(=O)N3C)O2)c1 | i | -0.6 | -5.3 | -27.4 | -4.9
COCCN1C(=O)CSCC1(C)C(=O)Nc1c(C)cccc1C (centres undefined) | i | 1.1 | 13.8 | 15.2 | 2.2
Cc1noc(C)c1S(=O)(=O)Nc1ccc2c(c1)CC(=O)N([C@@H](C)CO)C[C@H](C)[C@H](CN(C)CC1CC1)O2 | i | -2.8 | 3.3 | 3.6 | -0.3
C[C@@H]1CN([C@@H](C)CO)S(=O)(=O)c2ccc(-c3ccccc3)cc2O[C@@H]1CN(C)C(=O)CN(C)C | i | 5.2 | 1.4 | 2.0 | -3.3
COc1ccc(NC(=O)N(C)C[C@H]2Oc3ccc(NC(=O)Nc4ccccc4)cc3CC(=O)N([C@H](C)CO)C[C@@H]2C)cc1 | i | 3.5 | -3.0 | -9.9 | 0.3
COc1ccc(S(=O)(=O)N(C)C[C@@H]2Oc3ccc(NC(=O)Cc4cn(C)c5ccccc45)cc3CC(=O)N([C@H](C)CO)C[C@H]2C)cc1 | i | 0.3 | -4.0 | -5.9 | -2.3
COc1ccc(S(=O)(=O)N(C)C[C@H]2Oc3ccc(NS(=O)(=O)c4ccc(Cl)cc4)cc3C(=O)N([C@H](C)CO)C[C@H]2C)cc1 | i | 0.1 | -2.0 | -9.8 | -0.4
COc1ccc2[nH]cc(CCNC(=O)/C=C/[C@H]3O[C@@H](n4cc(C)c(=O)[nH]c4=O)C[C@@H]3O)c2c1 | i | 1.8 | -5.9 | -1.2 | -0.6
C[C@H]1CN([C@@H](C)CO)C(=O)Cc2cc(NS(=O)(=O)c3ccc(Cl)cc3)ccc2O[C@@H]1CN(C)CC1CC1 | i | -1.9 | -0.7 | 10.3 | 1.5
O=C([C@@H]1N[C@@H]2c3ccc(C4=CCCCC4)c(=O)n3C[C@@H]2[C@H]1CO)N1CCC(Cc2ccccc2)CC1 | i | 2.7 | -10.7 | -46.4 | 34.9
COc1ccc(CN(C)C[C@@H]2OCCCC[C@@H](C)Oc3ccc(NS(=O)(=O)c4cccs4)cc3C(=O)N([C@H](C)CO)C[C@@H]2C)cc1 | i | 2.9 | -0.4 | -1.0 | 0.7
CNC(=O)C[C@@H]1CC[C@@H]2[C@@H](COc3ccc(NC(=O)NC4CCCC4)cc3C(=O)N2C)O1 | i | -1.5 | 0.5 | 1.0 | 1.7
N#Cc1ccc(NC(=S)/N=C(\N)c2ccccc2)cc1 | i | 2.4 | -48.7 | -79.0 | -15.7
CC(C)C#Cc1cnc2c(c1)C(=O)N([C@H](C)CO)C[C@H](C)[C@@H](CN(C)C(=O)c1ccc3c(c1)OCO3)O2 | i | -0.9 | 0.5 | -1.3 | -0.5
CCCC#Cc1cnc2c(c1)C(=O)N([C@H](C)CO)C[C@H](C)[C@H](CN(C)C(=O)c1ccccc1)O2 | i | -1.9 | 5.4 | 4.2 | -2.6
CC(=O)N(C)C[C@@H]1Oc2cc(C#CC3CCCC3)ccc2S(=O)(=O)N([C@@H](C)CO)C[C@H]1C | i | 3.6 | -1.7 | -5.8 | 0.6
CC(C)Oc1ccc(CN2CCC2(C)C(=O)NCc2ccc(C(F)(F)F)cc2)cc1 (centres undefined) | i | -1.1 | -41.2 | -66.4 | -7.8

Four of the entries above in order of their number in MLL AF4-AF9 inh, highest first.
smiles	MLL AF4-AF9 inh	Ecoli rRNA inh	Ecoli rRNA inh OD600	Ecoli rRNA inh RFP
COc1ccc2[nH]cc(CCNC(=O)/C=C/[C@H]3O[C@@H](n4cc(C)c(=O)[nH]c4=O)C[C@@H]3O)c2c1	1.8	-5.9	-1.2	-0.6
COc1ccc(NC(=O)Nc2ccc3c(c2)C(=O)N([C@H](C)CO)C[C@@H](C)[C@H](CN(C)C(=O)NC2CCCCC2)O3)cc1	-2.3	2.7	5.9	-3.2
COc1ccccc1-c1ccc([C@@H]2[C@H]3CN(C(=O)c4ccncc4)CCCCN3[C@H]2CO)cc1	-4.0	-2.3	-7.0	1.9
CN1[C@@H]2c3ccc(-c4ccc(F)cc4)c(=O)n3C[C@@H]2[C@@H](CO)[C@@H]1C(=O)NCC1CC1	-19.8	1.3	-0.6	-0.3

Later entries.
SMILES | FGF22 binding | MLL AF4-AF9 inh | Ecoli rRNA inh | Ecoli rRNA inh OD600 | Ecoli rRNA inh RFP
COc1ccc(NC(=O)N(C)C[C@H]2Oc3c(NS(=O)(=O)c4ccc(C)cc4)cccc3C(=O)N([C@H](C)CO)C[C@H]2C)cc1 | i | 1.9 | -3.0 | -2.2 | 1.5
CN1C(=O)c2cc(NC(=O)c3ccccc3)ccc2OC[C@@H]2O[C@@H](CC(=O)NCC3CC3)CC[C@@H]21 | i | 0.8 | 1.9 | 5.7 | -1.1
C[C@H](CO)N1C[C@H](C)[C@@H](CN(C)C)Oc2ncc(-c3ccccc3F)cc2C1=O | i | -8.3 | 9.0 | 19.5 | -3.4
COc1ccc(NC(=O)Nc2ccc3c(c2)[C@@H]2C[C@H](CC(=O)N4CCc5ccccc5C4)O[C@@H](CO)[C@@H]2O3)cc1 | i | -0.7 | -3.7 | -4.3 | -1.1
CCc1nc2c(OCc3cc(Cl)cc(Cl)c3)cccn2c1N(C=O)Cc1ccccc1 | i | 2.9 | -13.2 | -32.4 | 1.0
O=C(CN1CCOCC1)N[C@@H]1CC[C@H](CCNC(=O)Nc2cc(F)ccc2F)O[C@H]1CO | i | 6.3 | -3.2 | -3.2 | 1.2
C[C@H]1CN([C@@H](C)CO)C(=O)Cc2cc(NS(=O)(=O)c3cn(C)cn3)ccc2O[C@@H]1CN(C)CC1CC1 | i | -1.7 | 1.2 | 8.2 | -0.2
COCC(=O)Nc1ccc2c(c1)OC[C@H](C)N(C(=O)NC(C)C)C[C@@H](C)[C@@H](OC)CN(C)C2=O | i | -2.9 | 3.0 | 0.0 | -1.0
COCC(=O)N1[C@@H](C#N)[C@@H](c2ccc(C3=CCCCC3)cc2)[C@@H]1CO | i | 2.6 | 0.0 | -1.9 | -0.7
O=C(C[C@@H]1CC[C@H]2[C@@H](COC[C@H](O)CN2S(=O)(=O)c2cccc(Cl)c2)O1)NCCCN1CCOCC1 | i | -3.9 | -2.8 | 2.8 | -4.1

Screening results (PubChem)
